Source: PubChem BioAssay (ICCB-Longwood Screening Facility, Harvard Medical School)
GIV Gai3 FP = inhibitors of GIV GBA-motif binding to rat Galpha-i3. P08753. Galpha-i3/FITC-GIV peptide fluorescence polarization, 90 min; hits give low values; scaled: aluminum fluoride 0%, vehicle 100%. percent of control (FP), % (no concentration beside the values). 210,000 compounds, 0.42% hits;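 active = replicate mean at 85% of control or lower, very high polarization wells dropped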;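 note: wells of about 15 µL received 100 nL stock; the first replicate is given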
Target sequence (P08753 whole entry, looked up): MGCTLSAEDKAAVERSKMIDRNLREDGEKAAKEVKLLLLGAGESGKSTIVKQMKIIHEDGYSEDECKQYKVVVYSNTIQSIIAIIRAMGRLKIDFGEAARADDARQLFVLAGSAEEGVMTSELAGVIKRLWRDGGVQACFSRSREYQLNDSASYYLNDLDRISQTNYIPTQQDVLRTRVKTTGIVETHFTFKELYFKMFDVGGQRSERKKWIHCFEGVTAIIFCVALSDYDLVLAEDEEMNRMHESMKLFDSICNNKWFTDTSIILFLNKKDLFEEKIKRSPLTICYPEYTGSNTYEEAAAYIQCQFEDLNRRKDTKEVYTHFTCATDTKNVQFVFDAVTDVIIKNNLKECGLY
Active calls of the source: *.

SMILES	GIV Gai3 FP
O=C(CN(c1cccc(C(F)(F)F)c1)S(=O)(=O)c1ccccc1)Nc1ccc(Br)cc1	105
Clc1ccc(C2N(Cc3ccccc3)CCN2Cc2ccccc2)cc1	101
O=S(=O)(c1ccc(F)cc1F)N1CCn2cccc2C1c1ccc(F)cc1 (centres undefined)	101
COc1ccc(NC(=O)C2=C(C)NC(SCC(=O)Nc3ccccc3)=C(C#N)C2c2ccccc2)cc1 (centres undefined)	119
CCCS(=O)(=O)N1CCCN(C2=NS(=O)(=O)C(c3ccc(Cl)cc3)=C2C)CC1	101
CCOC(=O)Nc1ccc2c(c1)N(C(=O)N1CCN(C)CC1)c1ccccc1CC2	103
CCCCCCCCCCCCCCC(=O)NC1C(OC(C)=O)OC(COC(C)=O)C(OC(C)=O)C1OC(C)=O (centres undefined)	110
COc1ccc(/C=C2\C=C(c3ccccc3)N(c3cccc(Br)c3)C2=O)cc1	110
COc1ccc(C(C(=O)NN(C(=O)c2ccccc2OC)c2ccccc2)(c2ccccc2)c2ccccc2)cc1	101
Cc1ccc(F)cc1S(=O)(=O)N1CCCN(c2nc3cccnc3s2)CC1	100
O=C(Nc1ccc(N2CCN(C(=O)c3ccccc3F)CC2)cc1)c1cccc(-n2cnnc2)n1	98
CC1(C)CC(N2C(=O)OC3(CC(C)(C)NC(C)(C)C3)C2(C)O)CC(C)(C)N1 (centres undefined)	107
CCCn1nnc2cc(-c3noc(COc4ccc(Cl)cc4)n3)ccc21	102
O=S(=O)(c1ccc2nc(N3CCN(C4CCCCC4)CC3)cnc2c1)N1CCCCC1	106
CCC1(C)CC(CCNCc2ccc(F)cc2)(c2ccc(C)cc2)CCO1 (centres undefined)	120
COC(=O)c1ccccc1NC(=O)c1ccc(N2CC3CC(C2)c2cccc(=O)n2C3)c(NC(=O)c2ccccc2Cl)c1 (centres undefined)	111
Cn1c(=O)c(C(=O)CS(=O)(=O)O)c2c3c(c(Br)ccc31)C(=O)c1ccccc1-2	84*
CCCC(=O)Nc1ccc(Nc2nc(C)cc(NCC)n2)cc1	113
CCn1cnc2cc(-c3noc(/C=C/c4ccccc4)n3)ccc21	103
COc1ccc(C(=O)N2CCN(C(=O)c3cc4ccccc4[nH]3)CC2)cc1OC	107
CCc1cc(C2CCCN2S(=O)(=O)c2ccc(OC)c(OC)c2)on1 (centres undefined)	105
CN(C)C(=O)Cn1cc2c(n1)CCCC2	101
N#Cc1ccc(NC(=O)c2cc3nc(-c4ccc5c(c4)OCO5)cc(C(F)(F)F)n3n2)cc1	109
CCSc1nnc(-c2nn(C)c3c2CN(S(=O)(=O)c2ccc(CC)cc2)CC3)n1CC	105
CC(C)c1nc(CN2CCSCC2)cc(=O)[nH]1	104

The final four compounds of the section above open the next one.
SMILES	GIV Gai3 FP
CN(C)C(=O)Cn1cc2c(n1)CCCC2	101
N#Cc1ccc(NC(=O)c2cc3nc(-c4ccc5c(c4)OCO5)cc(C(F)(F)F)n3n2)cc1	109
CCSc1nnc(-c2nn(C)c3c2CN(S(=O)(=O)c2ccc(CC)cc2)CC3)n1CC	105
CC(C)c1nc(CN2CCSCC2)cc(=O)[nH]1	104
COc1ccccc1C1Nc2ccc(Br)cc2C(c2ccccc2)O1 (centres undefined)	100
O=C(C1CCN(c2cncnc2N2CCCCC2)CC1)N1CCN(C2CCCCC2)CC1	105
O=C(Nc1ccc(F)cc1Cl)c1nc(N2CCOCC2)c2oc3ccccc3c2n1	103
CC1(C)CC2(C)Nc3ccccc3N2C(=S)N1 (centres undefined)	111
O=C(O)CN1S(=O)(=O)c2ccccc2S1(=O)=O	101
Nc1ccccc1C(=O)N1N=C(C(F)(F)F)CC1(O)c1ccccc1 (centres undefined)	108
Cc1ccc(NC(=O)C2Oc3ccccc3NC2=O)c(C)c1 (centres undefined)	98
COc1ccc(C(=O)NC(Cc2ccccc2)c2ccccc2)c(OC)n1 (centres undefined)	103
Cc1ccc(NC(=O)CCc2nc(CSc3nnc(-c4ccccc4)o3)no2)cc1Cl	104
COC(=O)c1ccc(C2Oc3ccc(OC)cc3C3CC(c4ccc(OC)cc4)=NN32)cc1 (centres undefined)	118
CCN(CC)S(=O)(=O)c1ccc2nc(N3CCN(Cc4ccc5c(c4)OCO5)CC3)cnc2c1	113
Cc1ccc(-c2n[nH]c(CCNS(=O)(=O)c3cccc(F)c3)n2)cc1	98
O=S(=O)(c1cccn2c(SCc3ccccc3Cl)nnc12)N1CCCC1	102
Cc1ccc(NC(=O)Nc2cc(F)c3nc(N4CCCC4)ccc3c2)cc1	107
COC(=O)c1cnn(-c2ccc(C)cc2)c1N	92
Cc1ccc(Nc2nc(C3(C)CC4(CC(C)(C)OC4=O)C(=O)O3)cs2)cc1 (centres undefined)	110
CCCCCn1c(SCC(=O)c2ccc(Br)cc2)nc2cc(C(=O)N3CCC(C(N)=O)CC3)ccc2c1=O	112
O=C(CN1C(=O)CSc2sc(S(=O)(=O)N3CCCC3)cc21)NCc1ccccc1Cl	104
Fc1ccc(-c2noc(-c3ccc(N4CCCC4)nc3)n2)cc1	98
COc1ccc(C2Nc3ccc(C)cc3[C@H]3OCCC[C@@H]23)c(OC)c1OC (some centres undefined)	101
COC(=O)c1sccc1NC(=O)N1CCN(C(=O)c2nsc3ccccc23)CC1	109
O=C(NCc1c(-c2ccccc2)nc2n1CCS2)c1ccc(S(=O)(=O)N2CCCCC2)cc1	106
Cc1csc(C2CCN(C(=O)NC(C)(C)C)CC2)n1	110
Cn1c(=O)c2nc(S(=O)(=O)CCC(=O)Nc3ccc(F)cc3Cl)n(C)c2n(C)c1=O	102
CC1CCN(S(=O)(=O)c2ccc(-c3nnc(C4CC4)o3)o2)CC1	106

Next section; it opens with the six that closed the last part.
SMILES	GIV Gai3 FP
COc1ccc(C2Nc3ccc(C)cc3[C@H]3OCCC[C@@H]23)c(OC)c1OC (some centres undefined)	101
COC(=O)c1sccc1NC(=O)N1CCN(C(=O)c2nsc3ccccc23)CC1	109
O=C(NCc1c(-c2ccccc2)nc2n1CCS2)c1ccc(S(=O)(=O)N2CCCCC2)cc1	106
Cc1csc(C2CCN(C(=O)NC(C)(C)C)CC2)n1	110
Cn1c(=O)c2nc(S(=O)(=O)CCC(=O)Nc3ccc(F)cc3Cl)n(C)c2n(C)c1=O	102
CC1CCN(S(=O)(=O)c2ccc(-c3nnc(C4CC4)o3)o2)CC1	106
Cc1ccc(NC(=O)CSC2=C(C#N)C(c3cccs3)C3=C(CC(C)(C)CC3=O)N2)c(C)c1 (centres undefined)	116
CCOc1ccccc1C(c1c(C)[nH]n(-c2ccccc2)c1=O)c1c(C)[nH]n(-c2ccccc2)c1=O	113
CCOC(=O)N1CCN(S(=O)(=O)c2cc(C(=O)Nc3ccc(Oc4ccccc4)cc3)ccc2F)CC1	107
O=C1C2CCCCC2C(=O)N1c1ncn[nH]1 (centres undefined)	100
Cc1cc(C)c(C#N)c(SCC(=O)Nc2ccc(Cl)c(Cl)c2)n1	106
CCOc1ccccc1NC(=O)NCCC1CCN(C(=O)Nc2cccc(Cl)c2)CC1	105
CCN1C(=O)CC(C(=O)Nc2ccc(C(=O)OC)cc2)SC1=Nc1ccc2c(c1)OCO2 (centres undefined)	113
CSc1ccc(NC(=O)N2CCC(c3cc(=O)n4nccc4n3C)CC2)cc1	95
O=S(=O)(NC1CCCCC1)c1ccccc1-c1nc(-c2ccccc2)no1	103
O=C(Nc1cc(Cl)ccc1Oc1ccc2ccccc2c1Br)c1cc(Cl)cc(I)c1O	113
COc1cccc(NC(=O)c2sc3nc4c(c(-c5ccco5)c3c2N)CCC4)c1	85*
Cc1ccc(-c2noc(-c3ccc(NCCc4ccc(S(N)(=O)=O)cc4)nc3)n2)cc1	101
COc1cccc(C(=O)Nc2ccc(-c3ccc4ccccc4n3)cc2)c1	104
COc1ccc2c(c1)c(=O)c1ccccc1n2CC(=O)Nc1ccc2c(c1)OCCO2	108
CCOC(=O)c1sc2nc(Cc3ccccc3)nc(NCC(OCC)OCC)c2c1C	106
CCc1nccn1Cc1noc(-c2cccs2)n1	104
CCCc1cc(C2CCCN2C(=O)c2cc(-c3cccs3)on2)no1 (centres undefined)	104
CC(C)(C)C1CCc2c(sc3c2C(=O)NC(c2ccc4c(c2)OCO4)N3)C1 (centres undefined)	99
CCOC(=O)c1oc2ccc(Cl)cc2c1N	106
CCn1nc(C)c2ccnc(N3CCC(C(=O)N4CCN(c5ccccn5)CC4)CC3)c21	97
CCOc1ccc(N2CC(O)(c3ccc(C)cc3C)[N+]3=C2SCCC3)cc1 (centres undefined)	106
Cc1nc2ccc(C(=O)NC3CCCCC3)cc2nc1C	109
Cc1c(C(=O)NCc2ccc(Cl)cc2)sc2ncn(CC(=O)N3CCN(c4ccccn4)CC3)c(=O)c12	97
O=C(NCc1cccnc1)c1ccc(OCc2nnc(C(=O)Nc3ccc(Cl)cc3)s2)cc1	105
Nc1c(C(=O)N2CCCCC2)sc2nc(-c3ccccc3)cc(C(F)(F)F)c12	102

Quoted from the listing.
In GIV Gai3 FP, CCC1(C)CC(CCNCc2ccc(F)cc2)(c2ccc(C)cc2)CCO1 (centres undefined) is entered as 120
In GIV Gai3 FP, CCCCCn1c(SCC(=O)c2ccc(Br)cc2)nc2cc(C(=O)N3CCC(C(N)=O)CC3)ccc2c1=O is entered as 112
In GIV Gai3 FP, CCCS(=O)(=O)N1CCCN(C2=NS(=O)(=O)C(c3ccc(Cl)cc3)=C2C)CC1 is entered as 101

Continued:
SMILES	GIV Gai3 FP
Cc1onc(-c2ccc(F)cc2F)c1C(=O)Nc1ccc(Br)cc1F	113
Cc1ccc(C2(CCNC(C)c3ccccc3)CCOC(C)(C)C2)cc1 (centres undefined)	104
FC(F)(F)c1cc(-c2ccc(Cl)cc2)nc(N2CCOCC2)n1	99
COc1ccc2oc(=O)c(-c3nnc(Nc4cc(C(F)(F)F)ccc4Cl)s3)cc2c1	102
CCOC(=O)N1CCC(NC(=O)c2ccc(N3CC4CC(C3)c3cccc(=O)n3C4)c(NC(=O)c3ccncc3)c2)CC1 (centres undefined)	110
COc1ccc(CNc2nc(SCC(=O)n3nc(N)cc3C)nc3ccccc23)cc1	115
Cc1ccc(C(=O)N2CCN(C(=O)CN3CCCC3)C2)cc1	108
Cc1ccc2c(c1)-c1c(sn(-c3ccc(C(C)C)cc3)c1=S)C(C)(C)N2	104
O=C(c1ccccc1F)N1CCN(c2cc(N3CCCCC3)c(F)cc2[N+](=O)[O-])CC1	111
CCc1nc(OCC(=O)Nc2ccc(C)c(C)c2)c2ccccc2n1	98
Cc1ccc(NC(=O)c2c(NC(=O)c3ccccc3F)sc3c2CCCCC3)c(C)c1	106
Cn1cc2c(N3CCSCC3)nc(C(=O)NCCc3cccs3)nc2n1	106
Cc1cc(-c2csc(S(=O)(=O)N3CCN(C(c4ccccc4)c4ccccc4)CC3)c2)on1	109
COC(=O)Cn1cnc2c(C#N)c3n(c2c1=O)CCCC3	102
O=C(N/N=C/c1cn(-c2ccccc2)nc1-c1ccccc1)c1cccc([N+](=O)[O-])c1	105
CCCC1=C(C(=O)OCC)C(c2ccc(C)cc2)C(C#N)=C(N)O1 (centres undefined)	111
COc1ccc2nc(-n3nc(C)c4c3NC(=O)CC4c3ccc4c(c3)OCO4)sc2c1 (centres undefined)	98
COc1ccc(NC(=O)c2nnc(C3CCN(C(=O)c4cccc(Cl)c4)CC3)s2)cc1	98
Cc1noc2nc(CCC(=O)N3CCOCC3)nc(N3CCOCC3)c12	98
Cn1c(SCc2ccccc2)nnc1-c1ccc2c(c1)OCCCO2	108
CC(NC(=O)c1cc(-c2ccccn2)nc2ccc(S(=O)(=O)N3CCOCC3)cc12)c1ccccc1 (centres undefined)	103
Cn1nnc2c(N(CCc3ccccc3)Cc3ccccc3)ncnc21	106
O=C(Nc1ccccc1Cl)/C(=C\c1ccc2c(c1)OCO2)NC(=O)c1ccccc1Br	105
O=S(=O)(Nc1cccn2c(C3CCC3)nnc12)c1cccc2nsnc12	100
Cc1ccc(NC(=O)CSc2nc3cc(C(=O)NCC4CCCO4)ccc3c(=O)n2Cc2ccco2)cc1Cl (centres undefined)	107

More compounds
SMILES	GIV Gai3 FP
CCn1ccnc(NC(C)C)c1=O	108
COc1cc(C2C3=C(CC(C)(C)CC3=O)OC3=C2C(=O)CC(C)(C)C3)cc2sc(=O)oc12	106
CCCCN1CCN(S(=O)(=O)c2cc(-c3nnc(C4CC4)o3)co2)CC1	102
O=C(Nc1ccc(Cl)cc1)c1ccc(CN2C(=O)C3CCCN3C(=O)c3ccccc32)cc1 (centres undefined)	101
Cc1nnc(N2C(=O)C(=O)/C(=C(/O)c3ccc(F)cc3)C2c2cccc(Oc3ccccc3)c2)s1 (centres undefined)	109
CCOc1ccc(N/C(SCc2cccc([N+](=O)[O-])c2)=C(/C#N)C(N)=O)cc1	112
O=C(Nc1sc2c(c1C(=O)Nc1ccccc1)CCCCC2)c1ccccc1Cl	102
O=C(Nc1ccc(F)c(Cl)c1)N1CCN(Cc2nc3cccnc3n2-c2ccc(F)cc2)CC1	99
Cc1ccccc1S(=O)(=O)Nc1ccc(-c2nnc(-c3ccccc3)o2)cc1	103
Cc1ccc(C(=O)Nc2nnc(SCC(=O)N3CCCc4ccccc43)s2)cc1[N+](=O)[O-]	111
CS(=O)(=O)N1CCCN(Cc2ccsc2)CC1	101
COc1ccc(C2(c3nc(Cn4cnc(S(=O)(=O)N5CCOCC5)c4)no3)CC2)cc1	106
COc1ccccc1N1CCN(c2ncnc3sc(C(=O)N4CCC5(CC4)OCCO5)c(C)c23)CC1	117
Cc1ccc(-c2noc(C3CC3)n2)cc1S(=O)(=O)N1CCC(C(=O)N2CCc3ccccc32)CC1	100
C=CCN1C(=O)OC(C)(C)C1(C)O (centres undefined)	109
CC1=C(C(=O)OCCOc2ccccc2)C(c2ccc3c(c2)OCO3)C2=C(CC(c3cccs3)CC2=O)N1 (centres undefined)	119
Cc1cc(N2CCOCC2)nc(N2CCN(C(=O)c3cccc(Br)c3)CC2)n1	105
CC(=O)OCC12c3ccccc3C(COC(C)=O)(c3ccccc31)C1C(=O)N(c3ccccc3)C(=O)C12 (centres undefined)	105
Cc1sc(C)c(S(=O)(=O)N(C)Cc2ccccc2)c1-c1cc(C(F)(F)F)on1	100
CC(=O)c1ccc(NC(=O)CSc2nc3ccc(NC(=O)c4cccc(C)c4)cc3s2)cc1	116

The list is partial, so the mix of outcomes need not match the whole.
